Assay outcomes from PubChem BioAssay.
GIRK2 act – activators of human GIRK2 potassium channels | calls only for hits at 25 µM | AID 1259325 | P48051 | hit rate 0.05% among 63,000 | HEK293-GIRK2 thallium flux, Thallos fluorescence;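 active = among the strongest 0.2% of first-round signals and kept after retests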;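 also: first round at about 10 µM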
Target sequence (P48051 whole entry, looked up): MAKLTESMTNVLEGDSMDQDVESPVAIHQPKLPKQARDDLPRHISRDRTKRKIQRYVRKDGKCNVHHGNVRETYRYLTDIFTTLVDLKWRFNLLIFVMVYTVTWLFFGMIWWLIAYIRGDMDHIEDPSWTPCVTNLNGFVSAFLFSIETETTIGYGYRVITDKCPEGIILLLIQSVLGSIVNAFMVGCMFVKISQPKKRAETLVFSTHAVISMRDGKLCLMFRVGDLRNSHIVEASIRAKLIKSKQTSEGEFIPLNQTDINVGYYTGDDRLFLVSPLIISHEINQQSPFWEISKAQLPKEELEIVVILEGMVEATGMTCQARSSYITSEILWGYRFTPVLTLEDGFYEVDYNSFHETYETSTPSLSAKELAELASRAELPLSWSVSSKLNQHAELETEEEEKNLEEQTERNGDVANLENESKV
Calls only; i = inactive. Not all compounds are listed. The share of hits here may be higher or lower than overall.

Sample of the layout:
GIRK2 act | compound
i | COc1ccccc1C1(C(=O)N(Cc2ccsc2)C2CC2)CCOCC1
i | O=C1C=C(NCc2ccccc2)C(=O)N1Cc1ccccc1

The listing, from the first entry:
GIRK2 act | compound
i | COc1ccccc1C1(C(=O)N(Cc2ccsc2)C2CC2)CCOCC1
i | O=C1C=C(NCc2ccccc2)C(=O)N1Cc1ccccc1
i | O=c1c(NCc2ccc3c(c2)OCO3)nccn1-c1ccc2c(c1)OCO2
i | CC(C)c1ccc(N2C=C(C#N)S(=O)(=O)c3c(F)cccc32)cc1
i | COc1cc(NC(=O)Cn2c(C)nc3c(c2=O)CCCC3)cc(OC)c1
i | Cc1nc(NC(=O)Cc2csc(Nc3ncccn3)n2)sc1C
i | Cc1ccc(C(=O)NC2CC3CCC2(C)C3(C)C)cc1 (centres undefined)
i | O=c1c(Oc2ccccc2Br)coc2c3c(ccc12)OCN(Cc1ccncc1)C3
i | Cc1cccc(-c2noc(C3CCN(CC(=O)Nc4cc(C)ccc4C)CC3)n2)c1
i | Cc1noc(C2(NC(=O)c3ccccn3)CCCCC2)n1
i | CCc1cccc2sc(N(CCCn3ccnc3)C(=O)c3ccco3)nc12
i | Cc1cc(C)cc(NC(=O)c2c[nH]c3nc(C)ccc3c2=O)c1
i | O=C(c1ccsc1)N1CCOCC1CO (centres undefined)
i | Cc1ccc(-n2cc(C(=O)N3CCC(NC(=O)c4cccs4)CC3)nn2)cc1C
i | CN(C)S(=O)(=O)c1ccc(C(=O)NCC2(O)CCOc3ccccc32)cc1 (centres undefined)
i | CN1CCN(c2cc(NC(=O)c3cccc(Br)c3)ncn2)CC1
i | CCc1ccc(C(=O)c2cn(CC(=O)Nc3ccc(F)c(F)c3)c3cc4c(cc3c2=O)OCO4)cc1
i | O=C(NCC1(c2ccccc2)CCOCC1)C1COc2ccccc2O1 (centres undefined)
i | Cc1c(N=Cc2ccc(O)c([N+](=O)[O-])c2)c(=O)n(-c2ccccc2)n1C
i | N#Cc1ccc(C(=O)N2CCC(COCc3ccccc3)CC2)cc1
i | CCn1cc(C(=O)NCc2ccc(C)cc2)c(S(=O)(=O)N2CCC(C)CC2)n1
i | COc1ccc(-c2ccc(C(=O)Nc3ccccc3F)o2)c([N+](=O)[O-])c1
i | Cc1ccccc1-c1csc2c(=O)n(Cc3ccc(N4CCCC4=O)cc3)cnc12
i | COc1ccc2nc(-c3ccc(OC)c(NC(=O)c4cc5ccccc5oc4=O)c3)cn2n1
i | C=C(C)Cn1c(N2CCC(C(N)=O)CC2)nc2c1c(=O)[nH]c(=O)n2C
i | COc1ccc(F)cc1S(=O)(=O)N1CCc2nc(NC(C)=O)sc2C1
i | NC(=O)CSc1nc2ccc(N3CCCCC3)cc2c(=O)n1Cc1ccccc1
i | NC(CSCCB(O)O)C(=O)O (centres undefined)
i | CCn1nccc1C(=O)NCCc1ccncc1
i | CCOC(=O)N1CCC(NC(=O)c2ccc(NC(=O)c3cn(C)nc3OC)cc2)CC1
i | CC(C)CNC(=O)C(=O)NCCCN1CCN(c2ccccc2)CC1
i | Cc1noc(CNC(=O)c2cc(Cl)ccc2Cl)n1
i | Cc1nnsc1C(=O)NCC1(c2ccccc2)CCOCC1
i | N#Cc1cnc(NC(=O)c2ccco2)s1
i | CN1CCN(c2cc(OCCNC(=O)c3ccccc3)ncn2)CC1
i | c1cnc(-c2nc(-c3ccc4c(c3)OCO4)no2)cn1
i | Cc1c(C(=O)NCc2ccco2)cnn1-c1nc2c(c(=O)[nH]1)CCCC2
i | Cc1cc(C)cc(NC(=O)c2ccc(-n3nncc3C)cc2)c1
i | CCCc1cc(C(=O)OC)c(NC(=O)/C=C\C(=O)O)s1
i | C=CC1(C)CC(=O)C(C(CO)COC(C)=O)C12C(=O)Oc1cccc(C)c1C2=O (centres undefined)
i | COC(=O)C1CC(O)(C2(C)CC(=O)c3c(O)cc(C)cc3O2)c2c(O)c(C)c(C(=O)c3c(O)cc(C)cc3O)c(O)c21 (centres undefined)
i | O=C(NCc1cccnc1)c1nccnc1-c1nc2ccccc2s1
i | Cc1ccc(C2C(=C(O)c3c(C)nc4ccccn34)C(=O)C(=O)N2CCN(C)C)o1 (centres undefined)
i | Cc1cc(C)cc(Nc2nc(C)cc3nn(CC(=O)NC4CCCC4)c(=O)n23)c1
i | O=C(CSc1nnc(N2CCN(c3ccc(F)cc3)CC2)s1)NCCc1ccccc1
i | Nc1c(-c2nc(-c3ccc(Cl)cc3)cs2)nnn1-c1cc(F)ccc1F
i | O=C(CN1CCN(CC(=O)c2ccco2)CC1)NCc1ccccc1Cl
i | COC(=O)N1CCc2ccc(F)cc2C1C(=O)NCCCN1CCCC1=O (centres undefined)
i | CC(C)N1CCc2c(sc(NC(=O)c3c(F)cccc3F)c2-c2nc3ccccc3s2)C1
i | COc1ccc(-c2noc(-c3nnn(-c4cccc(Cl)c4C)c3N)n2)cc1
i | COc1ccc(C)cc1S(=O)(=O)N1CCC(Oc2ccccn2)CC1
i | CC(C)c1ccc(OCC(=O)N2CCC(CSC3=NCCS3)CC2)cc1
i | CCn1c(=O)c2c(nc3n(-c4ccc(S(N)(=O)=O)cc4)c(C)c(C)n23)n(C)c1=O
i | CCc1c(C)nc(-n2nc(C3CC3)cc2NC(=O)Cc2ccc(OC)c(OC)c2)[nH]c1=O
i | COc1ccc(CC2S/C(=C(\C#N)C(N)=O)N(c3cccc(C)c3)C2=O)cc1 (centres undefined)
i | CCOc1ccc(-c2nc(CN3N=NC4C(=O)N(c5ccc(F)cc5)C(=O)C43)c(C)o2)cc1 (centres undefined)

(cont.)
GIRK2 act | compound
i | CCOC(=O)c1oc2c(c1C)C(=O)CC(C)(C)C2
i | CSc1cccc(NC(=O)CSc2nc3c(oc4ccccc43)c(=O)n2Cc2ccco2)c1
i | CS(=O)(=O)N1CC(c2nc(-c3ccccc3)no2)C1
i | COc1ccc(-c2cc3c4nn(CC(=O)Nc5ccc6c(c5)OCO6)c(=O)n4ccn3n2)cc1
i | Cn1c(-c2ccccn2)nn(CCNC(=O)CCn2ccc(=O)[nH]c2=O)c1=O
i | CC(O)(CNC(=O)Nc1ccc2c(c1)OCO2)c1ccco1 (centres undefined)
i | COc1ccc(CNC(=O)c2ccc3c(=O)n4nc(Nc5ccccc5C)sc4nc3c2)cc1
i | O=C(COc1ccccc1F)N(Cc1ccoc1)Cc1cccs1
i | Cc1c(-c2ccc(Cl)cc2)c(=O)oc2ccc(O)cc12
i | COc1ccccc1N1CCN(C(=O)c2cc3n(n2)CCCO3)CC1
i | COc1ccc(C)cc1NC(=O)C(=O)NCCN1CCN(c2ccc(Cl)cc2)CC1
i | CC(=O)Nc1ccc(S(=O)(=O)N2CCCC(c3nnc(C(F)(F)F)o3)C2)cc1 (centres undefined)
i | COc1ccc(CCC(=O)NC2CC(O)C(CO)C2)cc1 (centres undefined)
i | COc1ccc(-c2noc(-c3c(SC)nn(CC(=O)Nc4ccc(C)c(C)c4)c3N)n2)cc1OC
i | COc1cccc2sc(N3CC(OC(=O)c4ccc(C(C)=O)cc4)C3)nc12
i | CCc1ccc(-c2cc3c(=O)n(Cc4nc(-c5ccc(OC)cc5)oc4C)ccn3n2)cc1
i | COc1ccc(Cl)cc1NC(=O)Cn1nc2c(Oc3cccc(C)c3C)nccn2c1=O
i | Cc1ccc2c(Nc3cccc(Cl)c3)c(C(=O)N3CCOCC3)cnc2n1
i | CN(C)CCNc1nc2c(c(=O)n(Cc3ccc(Cl)cc3)c(=O)n2C)n1C
i | O=C(c1cccc(Cl)c1)N1CCN(c2ncnc3c2nnn3-c2ccccc2)CC1
i | CCc1ccccc1NC(=O)Cn1c(=O)n(-c2ccc(CC(=O)NC)cc2)c(=O)c2ccccc21
i | CC1CN(C(=O)c2ccc(NS(=O)(=O)c3ccc(C(C)(C)C)cc3)cc2)CC(C)O1 (centres undefined)
i | CCCCCCCCCCCCC/C=C/[C@@H](O)[C@H](CO)NC(=O)CCCCC
i | O=S(=O)(NCC1(c2ccccc2)CCOCC1)c1ccc(Cl)cc1

An excerpt from above in order of molecular weight, descending.
GIRK2 act | compound
i | CCc1ccc(-c2cc3c(=O)n(Cc4nc(-c5ccc(OC)cc5)oc4C)ccn3n2)cc1
i | CCCc1cc(C(=O)OC)c(NC(=O)/C=C\C(=O)O)s1
i | O=C1C=C(NCc2ccccc2)C(=O)N1Cc1ccccc1

(continued)
GIRK2 act | compound
i | COCCNC(=O)Cn1c(-c2ccccn2)nc2ccccc21
i | CS(=O)(=O)c1cccc2sc(N3CCN(C(=O)c4ccc(Cl)s4)CC3)nc12
i | COc1cccc(CN2CCC(c3nnc(-c4ccsc4)o3)CC2)c1
i | COc1ccc(/C=C2\Oc3cc(OC(C)C(=O)O)ccc3C2=O)c(OC)c1 (centres undefined)
i | CCCCOc1ccc(S(=O)(=O)Nc2cnc(OC)nc2)cc1
i | O=S(=O)(NCCn1ccc(C(F)(F)F)n1)C1CCCCC1
i | CCOc1ccc(-c2noc(CN3C(=O)COc4cc(C)ccc43)n2)cc1
i | CC(C)c1ccc(N2CC(c3nc(-c4ccc(N(C)C)cc4)no3)CC2=O)cc1 (centres undefined)
i | Cn1c(SCC(=O)c2ccc(Cl)cc2)nc2c1c(=O)n(Cc1ccccc1)c(=O)n2C
i | CN(C)C(CNC(=O)c1cc2ccccc2o1)c1cn(C)c2ccccc12 (centres undefined)
i | Cc1ccccc1OCCn1c(C(O)c2ccccc2)nc2ccccc21 (centres undefined)
i | CCOc1ccc(N(C)S(=O)(=O)c2ccsc2C(=O)NC(C)C)cc1
i | CCC(C)NC(=O)CCn1c(=O)c2ccccc2n2c(SCc3ccc(F)cc3)nnc12 (centres undefined)
i | O=C(c1ccc(=O)[nH]c1)N1CCN(c2nc3c(C(F)(F)F)cccc3s2)CC1
i | OC(CN1CCN(Cc2ccccc2F)CC1)c1ccco1 (centres undefined)
i | COC(=O)c1ccc(NC(=O)Cn2cnc3c(-c4ccc(F)cc4)csc3c2=O)cc1

Reformatted: entries from further up.
| compound | GIRK2 act |
| --- | --- |
| CN(C)C(CNC(=O)c1cc2ccccc2o1)c1cn(C)c2ccccc12 (centres undefined) | i |
| OC(CN1CCN(Cc2ccccc2F)CC1)c1ccco1 (centres undefined) | i |
| O=C(c1ccc(=O)[nH]c1)N1CCN(c2nc3c(C(F)(F)F)cccc3s2)CC1 | i |
| COC(=O)c1ccc(NC(=O)Cn2cnc3c(-c4ccc(F)cc4)csc3c2=O)cc1 | i |
| Cn1c(SCC(=O)c2ccc(Cl)cc2)nc2c1c(=O)n(Cc1ccccc1)c(=O)n2C | i |

Continuation:
GIRK2 act | compound
i | CCOC(=O)N1CCN(C(=O)c2cn(-c3ccc(OC)cc3)nn2)CC1
i | CCOc1ccc(-c2nc(Cn3c(=O)n(C(C)C)c(=O)c4ccccc43)c(C)o2)cc1
i | O=C(Nc1cc2ccccc2oc1=O)c1cnn2c1OCCC2
i | Cc1nc2ccccc2c(=O)n1-c1ccc(NC(=O)CC(C)C)cc1
i | CC(=O)Nc1nsc(N2CCC(C(=O)NCc3ccc(F)cc3F)CC2)n1
i | COc1ccc(-c2ccc(C(=O)Nc3ccccc3)o2)c([N+](=O)[O-])c1
i | C/C=C\C(=O)N1CCN(Cc2nnnn2-c2ccc(C)cc2)CC1
i | Cn1cc(CC(=O)NCC#CCN2CCCCC2)c2ccccc21
i | COc1ccc(NC(=O)CN2CCC(c3nc(-c4ccc(F)cc4)no3)CC2)cc1Cl
i | CSCCC(C)(O)CNC(=O)NC(c1ccccc1)c1ccccc1 (centres undefined)
i | Cc1ccc2c(c1)N(Cc1ccccc1)N=C(C(=O)N1CCOCC1)S2(=O)=O
i | NS(=O)(=O)c1ccc(NC(=O)c2ccc(-n3cccn3)nn2)cc1
i | C=C(C)Cn1c(=O)c2c(nc3n(-c4cccc(OC)c4)c(-c4ccccc4)cn23)n(C)c1=O
i | Cn1nnn(-c2ccc(NC(=O)CSc3ccc(F)cc3)cc2)c1=O
i | COc1ccc(/C=C2\Oc3c(ccc4c3CN(CCN3CCOCC3)CO4)C2=O)cc1OC
i | Cc1cc(NC(=O)CSc2ncc(CO)n2Cc2ccc(Cl)cc2)no1
i | O=C(CSC1CCCC1)N1CCC(c2nnc(-c3ccc(F)cc3)o2)CC1
i | COc1ccc(-c2coc3cc(OCc4ccc(F)cc4)ccc3c2=O)cc1OC
i | Cc1ccc(S(=O)(=O)NCCOc2ccc(-c3ccc(F)cc3)nn2)cc1C
i | O=C(CN1CCC(c2nc(-c3cccs3)no2)CC1)NCc1ccc(F)cc1
i | CN1CCN(C(CNS(=O)(=O)c2ccc3c(c2)OCCO3)c2ccc(F)cc2)CC1 (centres undefined)
i | CCOC(=O)C1CCc2sc(NC(=O)/C=C/c3ccco3)nc21 (centres undefined)
i | COc1ccc2c(c1)C=C(C(=O)Nc1cccc(C(C)=O)c1)C=CO2
i | CCOC(=O)Cc1csc(NC(=O)c2nnn(-c3ncc(C)s3)c2C)n1
i | C=CCn1c(=O)c(C(=O)Nc2cc(C)ccc2OC)c(O)c2ccccc21
i | O=C(c1cnn2ccccc12)N1CCN(S(=O)(=O)c2ccc(Cl)s2)CC1
i | O=C(NCCN1CCN(c2ccccc2)CC1)c1ccc(C(F)(F)F)cc1
i | COc1ccc(N2CCCn3c2nc2c3c(=O)n(Cc3cccc(C)c3)c(=O)n2C)c(OC)c1
i | CCS(=O)(=O)N1CCCc2cc(NC(=O)Nc3cccc(Cl)c3)ccc21
i | Cn1c(=O)n(CC(=O)OCc2ccccc2)c(=O)c2c1nc1oc(C(C)(C)C)cn12
i | CCOc1ccc(-c2csc(-n3nc(C)cc3NC(=O)c3ccc([N+](=O)[O-])o3)n2)cc1
i | COC(=O)c1ccc(S(=O)(=O)NCCn2nc(C(F)(F)F)n(C)c2=O)cc1
i | O=C(NC1CCCC1)c1nnn(-c2ccc(NC(=O)c3cc4ccccc4o3)cc2)n1
i | O=C(Nc1ccc([N+](=O)[O-])cc1)C1=Cc2ccccc2OC1
i | O=C(Nc1nc(-c2ccccn2)cs1)Nc1ccccc1C(F)(F)F

Two entries drawn at random from the list so far:
GIRK2 act | compound
i | COc1ccc(NC(=O)CN2CCC(c3nc(-c4ccc(F)cc4)no3)CC2)cc1Cl
i | Cc1ccccc1-c1csc2c(=O)n(Cc3ccc(N4CCCC4=O)cc3)cnc12
